Source: PubChem (National Center for Advancing Translational Sciences (NCATS))
Rango-impB inh = Rango-importin beta binding inhibition. AID 540263. Potency, µM (titrated, usually from 92.2 µM), for inactives: at the top dose inhibition of complex formation. Rango CFP/YFP FRET sensor + importin beta, 45 min. Q14974. 340,000 tested, 0.031% active; active = rising FRET ratio curve, often small or poorly fitted; inconclusive = mostly compound fluorescence or quenching in the first reads; inactive = flat curves in all reads;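 further: potency means the concentration at half of the fitted maximal effect; 0% = DMSO wells and 100% = buffer wells lacking importin beta; nearly all actives have a fitted effect of over 15% in size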
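FRET biosensor Rango (snurportin 1 IBB between N-terminal EYFP and C-terminal Cerulean), 50 nM in PBS/1 mM DTT/0.02% Tween-20/0.1% BSA, preincubated 5 min RT with compound; 0.125 microM importin beta added, 45 min RT, CFP/YFP FRET ratio read.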
miR-21 reporter = raises the signal of a miR-21 reporter; Potency, µM (doses to about 38.3 µM), without a hit: top-dose reporter change, positive = more light; HeLa miR-21 FLuc reporter, luciferase, 48 h; AID 2288; 340,000 tested, under 10 active; active = well fitted rising curve with a large enough effect; inconclusive = small, poorly fitted or top-dose-only effect; inactive = no such curve, though single readings can be large or run the other way;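 further: % of control where 0% means no effect; miR-21 action dims this reporter so a rising signal means less miR-21 action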
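Using DMEM plus 10% FBS, HeLa miR-21-FLuc cells are incubated with test compounds (final up to about 40uM) for 48 hours; firefly luciferase signal is then imaged following reagent-mediated lysis.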
GLA inh pH 4.5 = alpha-galactosidase A (human) inhibition, pH 4.5; P06280; purified enzyme, 4-MU-alpha-Gal fluorescence, pH 4.5; 230,000 tested, under 10 active; AID 1467; activity change, negative = inhibition, % at 105 µM; inconclusive = small, poorly fitted or top-dose-only inhibition, or a rising curve; inactive = flat fitted curve, though single readings scatter; no compound was filed as active;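 further: 0% = full activity with enzyme and -100% = basal without enzyme; dose as in the result columns while the protocol names 77 µM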
Target sequence (P06280 whole entry, looked up): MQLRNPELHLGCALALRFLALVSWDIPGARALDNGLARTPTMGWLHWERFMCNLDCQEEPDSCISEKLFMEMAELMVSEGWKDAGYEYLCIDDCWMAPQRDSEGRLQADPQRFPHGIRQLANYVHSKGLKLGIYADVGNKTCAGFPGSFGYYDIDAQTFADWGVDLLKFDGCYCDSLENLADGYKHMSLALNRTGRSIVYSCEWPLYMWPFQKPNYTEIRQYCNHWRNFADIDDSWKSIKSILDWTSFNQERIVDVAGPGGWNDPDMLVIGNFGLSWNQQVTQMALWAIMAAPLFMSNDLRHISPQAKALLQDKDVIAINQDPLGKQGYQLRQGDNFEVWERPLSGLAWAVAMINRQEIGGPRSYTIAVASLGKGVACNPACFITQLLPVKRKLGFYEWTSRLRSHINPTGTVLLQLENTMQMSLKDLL
Rango release inh = prevents RanGTP from dissociating the Rango-importin beta complex; 340,000 tested, 0.071% active; Potency, µM (series often up to 46.1 µM), without a hit: at the highest dose activity change, negative = inhibition; Biochemical FRET Rango-importin beta, RanGTP-induced dissociation; active means falling FRET ratio curve, often poorly fitted, with flat reads before Ran was added; inconclusive means other falling curves, or compound fluorescence or quenching; inactive means flat or rising ratio curve;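 further: potency means the concentration at half of the fitted maximal effect; % of control where 0% means no effect; nearly all actives have a fitted effect of over 45% in size; -100% = wells without RanGTP and RCC1; the record marks most hits as doubtful in a second field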
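Compounds preincubate 5 min with complex of recombinant Rango and importin beta in PBS with 1 mM DTT. Ran (0.6 uM) loaded with 2 mM GTP plus 0.2 uM RCC1 starts dissociation; FRET is recorded 45 min later.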
The depositor's hits bear a star; ? = inconclusive; . = no result given; & = joins results of further samples. Some of the compounds tested; count on the stated rates, not on these rows.

SMILES | Rango-impB inh | miR-21 reporter | GLA inh pH 4.5 | Rango release inh
COc1ccc(CCN(Cc2cc3cccc(C)c3n3nnnc23)C(=O)c2ccncc2)cc1OC | . | -8% | 3 | .
O=C(Nc1ccc2c(c1)C(=O)N(CC1CCCO1)C2=O)c1ccccc1Br (stereo not given) | -1.9% | 2% | 5 | -8%
Nc1nc(Oc2ccc(F)cc2)c(Br)c(=O)[nH]1 | 1.7% | -6% | . | 27%
Cc1cc(-c2nc3ncccc3o2)ccc1N | ? | -64% | 6 | -24%
CCN(CC(=O)Nc1ccc(NC(C)=O)cc1)C(=O)c1cc(CN2C(=O)c3ccccc3C2=O)ccc1OC | -1.8% | . | . | 0%
COc1ccc(-c2noc(N3CCC(C(=O)Nc4ccc(OC)c(OC)c4)CC3)n2)cc1 | 0.1% | -8%&-1% | . | 9%
COc1ccc(NS(=O)(=O)/C=C/c2ccc(OC)c(OC)c2)cc1 | -1.0% | -12% | -6 | -3%
CC12CCC(C(=O)N(NC(=O)c3ccccc3O)C1=O)C2(C)C (stereo not given) | -0.1% | 27% | 7 | 6%
Cn1cccc1-c1cc(C(=O)O)[nH]n1 | -1.4% | -2% | -1 | 8%
COc1cc(OC)c(S(=O)(=O)Nc2ccc(C)cn2)cc1NC(C)=O | 0.8% | -7% | 6 | 0%
CC1CN(C(=O)COC(=O)COc2ccc(C#N)cc2)CC(C)O1 (stereo not given) | 3.2% | . | . | -17%
O=C(OCC(=O)N1CCCC1)c1ccc(Cl)c([N+](=O)[O-])c1 | 2.5% | 0% | . | 1%
CC(C)(Oc1cccc2ccccc12)C(=O)O | -0.1% | -4% | -4 | ?
CC(C)C[C@H]1CNC(=S)N1CC1CCCN1C[C@H](CC(C)C)N1C[C@H](Cc2ccc(O)cc2)N(CC2CCCCCC2)C1=S (stereo not given in full) | ? | . | . | ?
O=S(=O)(c1ccccc1)c1cnn2c(C(F)(F)F)cc(-c3ccc(F)cc3)nc12 | -0.8% | 2% | 23 | -16%
Cc1cc(OCC(=O)NC2CCCCC2)ccc1Cl | 0.1% | -30% | -15 | -1%
CC1CCN(S(=O)(=O)c2ccc(N=NC3=C(O)CC(C)(C)CC3=O)cc2)CC1 | -1.2% | 1% | 3 | 6%
Cc1ccc(N2C(=O)N(CC(=O)Nc3ccc(C)c(C)c3)C(=O)C2C)cc1 (stereo not given) | -2.3% | . | . | 19%
CC(=O)Nc1ccc(NC(=O)c2ccc(COc3ccc4c(C)cc(=O)oc4c3)cc2)cc1 | . | -13% | 7 | .
Cc1ccc(-n2nc3c(c2NC(=O)c2cccs2)CSC3)cc1 | -2.2% | 1% | -4 | 19%
COc1ccc(/C=N/NC(=O)c2ccoc2C)cc1O | 1.6% | -62% | -6 | 41%
CC(C)CC(=O)Nc1ccc(C(=O)Nc2cccc(O)c2)cc1 | -1.4% | -49% | 0 | 5%
O=S(=O)(c1ccc(Cl)cc1)N1CCN2CCCC2C1 (stereo not given) | -2.5% | -3% | . | 37%
Cc1ccc(C)c(NC(=O)CCC(=O)N2CCOc3ccccc32)c1 | -0.1% | 1% | . | -2%
COc1ccc(C(=O)Nc2c(C)cc(C)cc2C)cc1OC | 3.2% | 0% | . | 0%

Arranged by the number under miR-21 reporter (highest first): 3 of the compounds above.
compound	miR-21 reporter
Nc1nc(Oc2ccc(F)cc2)c(Br)c(=O)[nH]1	-6%
CC(=O)Nc1ccc(NC(=O)c2ccc(COc3ccc4c(C)cc(=O)oc4c3)cc2)cc1	-13%
Cc1cc(OCC(=O)NC2CCCCC2)ccc1Cl	-30%

Later entries:
SMILES | Rango-impB inh | miR-21 reporter | GLA inh pH 4.5 | Rango release inh
O=C(/C=C/c1ccccc1)NC(=S)Nc1ccc2c3c(cccc13)CC2 | ? | 2% | 5 | -5%
CCN(CC)CC(C(=O)N(CC)CC)P(=O)(c1ccccc1)c1ccccc1 (stereo not given) | -0.3% | 6% | 5 | 1%
Cc1ccc(OCCCC(=O)NNC(=O)c2ccncc2)cc1 | -0.9% | . | . | 3%
NC(=O)c1c(NC(=O)Cn2cnc([N+](=O)[O-])n2)sc2c1CCCC2 | -0.1% | 4% | 3 | 2%
O=C(NCCOc1ccc2ccccc2c1)c1cncc(Br)c1 | 4.2% | -3% | -2 | 3%
O=S(=O)(c1ccc(Br)cc1)n1ccc2ccccc21 | 4.8% | 4% | 5 | 2%
CN(CC(=O)Nc1cccc(F)c1)C(=O)c1ccc(S(=O)(=O)N2CCCC2)cc1 | 0.2% | . | . | 3%
Oc1cccc(Nc2nc(-c3ccccc3Cl)nc3ccccc23)c1 | -1.8% | 26% | . | 11%
CCn1c2ccccc2c2cc(/C=N/NC(=O)c3ccc(O)cc3)ccc21 | -1.1% | 2% | -5 | -9%
Cc1cc(C)c2oc(=O)cc(CN3CCCCC3)c2c1 | 3.0% | 1% | . | 17%
CC1CCN(S(=O)(=O)N2CCCC(C(=O)NCc3ccccc3Cl)C2)CC1 (stereo not given) | -0.9% | 1% | . | 4%
CCOC(=O)C1=C(C)N(CCCC(=O)O)C(=O)NC1c1ccc([N+](=O)[O-])cc1 (stereo not given) | -1.6% | 0% | -7 | 13%
Cc1ccc(Cn2c(C3CCCN3c3nc(C)cs3)nc3cc(C(=O)NCCCO)ccc32)cc1 (stereo not given) | -3.1% | . | . | -8%
CC(=O)N/C(=C/c1ccc(OS(=O)(=O)c2ccc(C)cc2)cc1)C(=O)NCCO | -5.9% | -6% | 21 | -9%
CC(C)[C@H]1C=C(C(=O)O)O[C@@H](OCc2ccc(CO)cc2)C1 | -0.7% | 1% | 0 | 35%
Cc1ccc(S[C@@H](CCN2CC[C@H](C)CCC2=O)c2ccccc2)cc1 | -0.4% | 8% | . | 18%
CCCCc1nc(Cl)c(C#N)c2c1CCC2 | -0.9% | -4% | -4 | -2%
O=C(C[n+]1ccc(/C=C/c2ccccc2)cc1)c1ccc2c(c1)OCCO2 | ? | 22% | -3 | ?
CSc1ccccc1NC(=O)c1ccc(C)o1 | 3.7% | -38% | 5 | -8%
Cc1nnc2sc(SCC(=O)Nc3ccc(Cl)cc3)nn2c1=O | 0.1% | -5% | 11 | -15%
c1ccc(CCCCN2CCN=C2Nc2ccccc2)cc1 | 1.4% | . | . | -6%
CC(C)CCNC(=O)COc1ccc(C(=O)c2ccccc2)cc1 | -3.6% | 12% | 2 | -13%
CCOC(=O)C(=O)N(Nc1ccccc1C)c1ccccc1C | -0.9% | 0% | 0 | -4%
COc1cc(/C=N/Nc2ccc(Cl)nn2)cc(OC)c1O | 3.5% | 0% | . | 6%
COc1nc(C#N)nc(N(C)C)n1 | -3.5% | -7% | 2 | 11%

Rewritten as tab-separated lines: five of the compounds above
SMILES	Rango-impB inh	miR-21 reporter	GLA inh pH 4.5	Rango release inh
NC(=O)c1c(NC(=O)Cn2cnc([N+](=O)[O-])n2)sc2c1CCCC2	-0.1%	4%	3	2%
O=C(NCCOc1ccc2ccccc2c1)c1cncc(Br)c1	4.2%	-3%	-2	3%
O=S(=O)(c1ccc(Br)cc1)n1ccc2ccccc21	4.8%	4%	5	2%
CN(CC(=O)Nc1cccc(F)c1)C(=O)c1ccc(S(=O)(=O)N2CCCC2)cc1	0.2%	.	.	3%
Oc1cccc(Nc2nc(-c3ccccc3Cl)nc3ccccc23)c1	-1.8%	26%	.	11%

(next part)
SMILES | Rango-impB inh | miR-21 reporter | GLA inh pH 4.5 | Rango release inh
O=C(c1cc(COc2ccc(F)cc2Cl)on1)N1CCCC(OCc2cccnc2)C1 (stereo not given) | -1.4% | -6% | -16 | -3%
Cc1onc(-c2ccccc2Cl)c1C(=O)Nc1ccccc1N1CCOCC1 | 5.0% | -1% | -3 | -3%
O=C(NCCCN1CCCC1=O)c1ccc(OC(F)(F)F)cc1 | ? | -1% | 6 | -7%
COc1ccccc1C(=O)NCCn1cc(SCC(=O)NCc2ccco2)c2ccccc21 | -0.9% | 11% | 9 | -1%
C=CCn1c(=O)c(C(=O)Nc2ccccc2OC)c(O)c2ccccc21 | . | -7% | 5 | .
COCCCn1cnc2c(c1=O)c1nc3ccccc3nc1n2CCc1ccccc1 | -1.2% | -8% | -14 | 19%
O=C(CCN1C(=O)/C(=C/c2ccccc2F)SC1=S)Nc1ccccn1 | -2.6% | -3% | . | 0%
O=C(Nc1ccncc1)C1CCN(S(=O)(=O)c2cccc(C(F)(F)F)c2)CC1 | -2.4% | . | . | 3%
COc1ccc(NC(=S)N2CCCN(Cc3cc(C)ccc3C)C2)cc1 | 0.1% | -7% | -3 | 17%
CC(C)CCSc1nc(N)c(C#N)cc1C#N | ? | -15% | 4 | ?
Cc1cc(C)c(Cn2c3ccccc3c3cnn(CC(=O)NCc4ccccn4)c(=O)c32)c(C)c1 | -1.1% | -1%&9% | . | 2%
CN1C(=O)CSC1=S | -3.7% | -2% | . | 5%
O=C(O/N=C/c1ccc(Cl)cc1)C1CCCCC1 | -4.7% | -3% | . | 1%
O=[N+]([O-])c1ccc(NCCCNS(=O)(=O)c2ccccc2)cc1 | 3.7% | 20% | -9 | 0%
COc1ccc(NC(=O)CCc2ccccc2)cc1S(=O)(=O)N1CCCCC1 | -0.2% | . | . | -1%
CCc1cccc(NC(=O)Cn2cccc2)c1 | -1.8% | -14% | 3 | 4%
O=C(COC(=O)CNS(=O)(=O)c1ccc(Br)cc1Cl)NCCc1ccccc1 | -2.3% | 6% | . | 2%
COc1cc2nc(Nc3ccc(C)c(Cl)c3)nc(N)c2cc1OC | 3.0% | 27% | . | 1%
Cc1cc(C(C)C)n2c(nc3ccccc32)c1C#N | . | -3% | 4 | .
CC(=O)Nc1cccc(C(=O)OCc2ccc([N+](=O)[O-])cc2)c1 | 1.2% | -9% | 2 | -4%
Cc1ccc(CNC(=O)c2c(C)cc(=O)oc2C)cc1 | 0.2% | 0% | -2 | -8%
COc1cc(/C=N/N2C(=O)CSC2=S)cc(Br)c1O | ? | -12% | 4 | ?
O=C(NCCCN1CCOCC1)c1cc(-c2ccc(Br)cc2)nc2ccccc12 | 5.1% | . | . | 19%
COc1ccc(N(CC(=O)N2CCCC2)S(C)(=O)=O)cc1 | -0.4% | -1% | . | 0%
Cc1cc(C(=O)COC(=O)c2ccc(NC(=O)CC#N)cc2)c(C)n1CCc1ccc(F)cc1 | ? | . | . | -1%

Carrying on.
SMILES | Rango-impB inh | miR-21 reporter | GLA inh pH 4.5 | Rango release inh
O=Cc1ccc(-c2ccccc2C(=O)O)o1 | -0.3% | 0% | -6 | 3%
Cn1c(SCc2cccc3ccccc23)nnc1-c1ccco1 | 2.9% | -32% | -7 | -10%
CCOC(=O)Cn1c(=O)oc2cc(S(=O)(=O)N3CCN(c4ccccn4)CC3)ccc21 | 0.7% | 0% | 1 | -4%
CSc1nnc(-c2ccc(O)cc2)n1C | -2.5% | -12% | 1 | 2%
O=C(c1ccc(Br)o1)N(c1ccccn1)C1CCCCC1 | 0.1% | 1% | -21 | -3%
COc1ccccc1-c1nc(S(=O)(=O)c2ccc(Cl)cc2)c(N(C)C)o1 | -4.4% | 0% | 1 | 13%
Cc1cc(-c2n[nH]c(=S)n2Cc2ccco2)nn1C | -2.6% | -10% | -9 | 1%
O=C(COC(=O)c1ccccc1Oc1ccccc1)NC1CCS(=O)(=O)C1 (stereo not given) | 0.8% | -2% | -13 | 8%
Cc1cc(C)cc(N(C(=O)C2CCCC2)C2C=CS(=O)(=O)C2)c1 (stereo not given) | 8.3% | 5% | -6 | 0%
Cc1ccc(C)c(S(=O)(=O)Nc2cc(SCC(=O)O)c(O)c3ccccc23)c1 | -1.2% | 25% | -8 | -8%
COc1ccc(/C=N/NC(=O)c2cc(O)c(O)c(O)c2)cc1Cn1cc([N+](=O)[O-])cn1 | 0.0% | -2% | -20 | -13%
CCN1CCN(C(=O)c2nn(-c3ccccc3)c(=O)c3ccccc23)CC1 | 1.8% | -3% | 3 | 6%
CN(C)CCCN(C(=O)c1ccc(S(=O)(=O)N(C)C2CCCCC2)cc1)c1nc2ccc(F)cc2s1 | 1.0% | -9% | . | 1%
O=c1c(-c2cccc3ccccc23)[n+]([O-])c2ccccc2n1O | ? | -5% | -6 | ?
COc1ccc(-c2ccc(=O)n(Cc3ccccc3)n2)cc1 | -4.8% | -12% | . | 5%
COC(=O)C1Sc2[nH]c(=O)sc2C2c3ccccc3OC(=O)C12 (stereo not given) | ? | 1% | -11 | ?
